Screening data from PubChem BioAssay.
ClpP mod = qHTS Assay for Activators of ClpP; purified B. subtilis ClpP, FRET peptide cleavage, 20 min; ATP-dependent Clp protease proteolytic subunit (Bacillus subtilis (strain 168)), P80244; Potency, µM (doses to about 57.5 µM), for inactives: top-dose activity change, negative = active; 340,000 compounds, 1.9% hits; active = well fitted falling curve with a large enough effect; inconclusive = small, poorly fitted or top-dose-only effect; inactive = no such curve, though single readings can be large or run the other way; further: potency means the concentration at half of the fitted maximal effect; the source files actives as falling curves though it sought activators and does not explain the sign; nearly all actives have a fitted effect of over 65% in size; many hits overshoot -100%
Target sequence (P80244 whole entry, looked up): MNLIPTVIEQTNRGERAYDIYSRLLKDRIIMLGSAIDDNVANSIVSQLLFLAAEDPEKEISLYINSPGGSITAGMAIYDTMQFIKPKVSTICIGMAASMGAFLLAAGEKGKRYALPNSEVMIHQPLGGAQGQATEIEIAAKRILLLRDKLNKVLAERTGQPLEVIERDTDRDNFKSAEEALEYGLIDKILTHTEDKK
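Buffer: 100 mM Tris/HCl pH8, 100 mM KCl, 0.05% low protease BSA, 2.5% glycerol, 0.01% Tween-20. ClpP 10 microg/mL final; 20 min RT; delta FRET normalized to ADEP and DMSO controls.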
Menin MLL FP FL = qHTS Assay for Inhibitors Targeting the Menin-MLL Interaction in MLL Related Leukemias: Competition With Fluorescein Labeled MLL-derived Peptide; 290,000 tested, under 10 active; FP activity change, % at 61.4 µM; AID 1766, 2009; Fluorescence polarization, fluorescein-MLL peptide displacement from menin; inconclusive = falling polarisation curve, or a change in total fluorescence; inactive = total fluorescence flat and polarisation flat or rising; no compound was filed as active; the % refers to the polarisation; negative = inhibition;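 further: % of control where 0% means no effect; inhibitors lower the polarisation; unlabelled MLL peptide was the positive control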
PINK1 modulator = A Quantitative High throughput Screen to Identify Chemical Modulators of PINK1 Expression; PINK1 immunofluorescence, high-content cytometry, 24 h; Potency, µM (titrated, usually from 76.6 µM), inactives show at the highest dose activation (PINK1 increase), hits mostly activators; AID 624263, 2012; 410,000 compounds, 0.2% hits; active = well fitted activation curve with a large enough effect; inconclusive = small, poorly fitted or top-dose-only effect; inactive = flat fitted curve, though single readings scatter; cell line not stated here;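 further: potency means the concentration at half of the fitted maximal effect; % of control where 0% means no effect; nearly all actives have a fitted effect of over 65% in size; a mitochondrial uncoupler was the plate control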
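Stable cell line treated 24 h with compounds at 5 concentrations (CCCP controls), then fixed and immunostained for PINK1 plus nuclear and cell stains; PINK1 immunofluorescence quantified by laser-scanning microplate cytometry.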
TRPV1 PAM = HTS Assay for Compounds that Act as Potentiators of the Vanilloid Receptor 1; Transient receptor potential cation channel subfamily V member 1 (Homo sapiens), Q8NER1; TRPV1-expressing cells, Fluo-8 calcium influx, capsaicin EC20 potentiation; host cell line not named in the record; control for the full effect not named in the record; potentiation, % at 8.33 µM; 320,000 compounds, 0.02% hits; active means potentiation above 80%; inconclusive means 30% to 80%; inactive means below 30%; further: 0% is about no effect
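Fluo-8 calcium influx in TRPV1-expressing cells, kinetic read (ex 480/em 520 nm). Compound added and read 3 min for agonist activity, followed by capsaicin at EC20 final and 2 min further read for enhancement.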
Sfp inh = qHTS Assay for Inhibitors of Bacillus subtilis Sfp phosphopantetheinyl transferase (PPTase). 4'-phosphopantetheinyl transferase ffp (Bacillus subtilis), Q9F4F7. Biochemical Sfp PPTase activity, qHTS. Potency, µM, for the others: max response, negative = inhibition, usual class: inhibitors. 310,000 compounds, 3.5% hits. AID 1490, 2009; active means well fitted inhibition curve with a large enough effect; inconclusive means small, poorly fitted or top-dose-only effect, or another doubt; inactive means no such curve, though single readings can be large or run the other way;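 further: the enzyme is Sfp with the accession as filed and its product quenches rhodamine fluorescence; potency means the concentration at half of the fitted maximal effect; 0% = enzyme reaction without inhibitor and -100% = no enzyme wells; top concentration of the series not given in the record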
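Reaction rates are the 30-min fluorescence difference (ex 525, em 598 nm) in wells containing 15 nM Sfp, 5 uM rhodamine-CoA and 12.5 uM BHQ-2-YbbR at pH 7.6 with 10 mM MgCl2.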
TRPML1 ag = qHTS for Agonists of the Human Mucolipin Transient Receptor Potential 1 (TRPML1); TRPML1-expressing cells, Ca2+ dye fluorescence, FDSS; host cell line not named in the record; reference of the full effect not given here; 410,000 compounds, 0.12% hits; Mucolipin-1 (Homo sapiens), Q9GZU1; activation, % (concentration not given with the values); in the data active = activation above about 50%; inconclusive = about 30% to 50%; inactive = below about 30%; further: 0% is about no effect; the text of the record puts the active cut at 80%
Target sequence (Q9GZU1 whole entry, looked up): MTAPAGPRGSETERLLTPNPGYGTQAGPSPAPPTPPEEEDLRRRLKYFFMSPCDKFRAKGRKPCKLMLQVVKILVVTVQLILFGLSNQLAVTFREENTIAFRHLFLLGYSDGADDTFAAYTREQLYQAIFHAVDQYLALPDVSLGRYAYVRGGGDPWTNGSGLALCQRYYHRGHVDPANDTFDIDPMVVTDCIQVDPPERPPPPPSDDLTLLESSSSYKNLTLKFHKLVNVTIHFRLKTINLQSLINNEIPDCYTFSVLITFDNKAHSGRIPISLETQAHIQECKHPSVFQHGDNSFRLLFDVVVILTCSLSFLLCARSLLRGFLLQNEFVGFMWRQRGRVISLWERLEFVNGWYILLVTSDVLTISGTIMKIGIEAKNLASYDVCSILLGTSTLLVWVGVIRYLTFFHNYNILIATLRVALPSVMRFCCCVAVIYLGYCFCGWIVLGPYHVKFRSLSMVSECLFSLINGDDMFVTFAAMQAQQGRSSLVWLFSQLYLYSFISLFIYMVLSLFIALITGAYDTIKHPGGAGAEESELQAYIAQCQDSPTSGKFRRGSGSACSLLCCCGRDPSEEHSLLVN
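In this qHTS format, compounds were pin-transferred onto Ca8-dye-loaded TRPML1-DL cells induced with Tet overnight, and intracellular Ca2+ fluorescence was recorded kinetically for 110 s after a 10 s baseline. A subsequent 4uM final 54-4 (EC80) addition followed by a second 110 s read served as the antagonist phase.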
TRPML1 blocker = qHTS for Inhibitors of the Human Mucolipin Transient Receptor Potential 1 (TRPML1) | Mucolipin-1 (Homo sapiens), Q9GZU1 | TRPML1-inducible cells, Ca2+ dye fluorescence, FDSS; stronger effect = lower value; inhibition of EC80 agonist-evoked calcium signal | activity change, negative = inhibition, % (concentration not given with the values) | 390,000 compounds, 0.02% hits | AID 624415, 2012; in the data active means activity change below about -50%; inconclusive means about -30% to -50%; inactive means above about -30%;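 further: stimulus is agonist 54-4 at its EC80 concentration; on the % scale 0 is the no-effect control and ±100 the full control effect; the text of the record puts the active cut at -80%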
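Calcium fluorescence in TRPML1-DL cells induced overnight with Tet: a 110 s read after compound pin addition, then a 110 s antagonist read after challenge with 54-4 at 4 uM final (EC80).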
* hit, by the source's call; u = inconclusive; x = no result given; & = joins results of further samples; [ ] = dose if it differs, or a comment.

Molecule	ClpP mod	Menin MLL FP FL	PINK1 modulator	TRPV1 PAM	Sfp inh	TRPML1 ag	TRPML1 blocker
Cc1cccc(OCC(=O)N/N=C/CC(C)c2ccccc2)c1C (configuration not stated)	-8.6%	5.0	5.1%	-7	-12%	-0.1	11
COC(=O)c1cccc(Oc2nc3c(c(=O)n(C)c(=O)n3C)n2C(C)C)c1	-3.0%	1.0	0.3%	28	6%	-1.0	6
O=C1CN(CC(=O)Nc2ccc(SC(F)F)cc2)CCN1	x	1.8	2.8%	-1	4%	-0.4	6
Cc1ccc(C(=O)Nc2ccc3nc(SCC(=O)N4CCCc5ccccc54)sc3c2)cc1	20µM*	x	-0.6%	x	x	1.6	-14
CCOP(=O)(OCC)C(NC(=O)Nc1cccc(Cl)c1)C(N)=O (configuration not stated)	-1.1%	2.7	0.2%	2	-7%	0.8	-17
COC(=O)CN(c1ccc(OC)cc1)S(=O)(=O)c1c(C)noc1C	-5.2%	0.4	-2.2%	20	16%	-0.6	5
COc1cccc(NC(=O)CSc2nnc(-c3ccoc3C)n2-c2ccccc2)c1	0.2%	6.0	-0.6%	-7	13%	0.9	5
O=C1CSC2(CCCCC2)N1CCO	0.8%	1.3	-0.8%[38.3 µM]	-14	11%	-0.6	-3
COc1ccc(NC(=O)C(C)n2nc(C)c3c(C)n(-c4ccccc4)nc3c2=O)cc1Cl (configuration not stated)	-0.4%	x	-2.4%	x	x	-0.5	21
COc1ccc([C@H]2C[C@@H](n3cc(C4CC4)nn3)[C@H](O)CN2Cc2cccs2)cc1	-2.5%	x	2.7%	x	x	-0.4	-17
C=C(C)COc1ccc2c(CC)cc(=O)oc2c1	4.1%	-0.4	0.6%	-4	56µM*	2.8	-5
COc1ccc2nc(N3CCN(C(=O)C4COc5ccccc5O4)CC3)sc2c1 (configuration not stated)	-2.5%	x	5.0%	-28	x	1.4	3
CCOC(=O)c1ccc2c(c1)N(C(CC)C(=O)Nc1ccccc1OC)C(=O)c1ccccc1S2 (configuration not stated)	-2.3%	x	1.6%	x	x	1.3	-7
COC(=O)c1ccc(NC2=CC(=O)CC(C)(C)C2)cc1	-3.3%	0.3	-0.4%	-20	11%	-1.2	-6
COc1ccc(/C=N/N=C/c2ccc(OC)cc2)cc1	-1.1%	1.5	1.2%	-2	7%	0.6	-7
Cc1ccc(S(=O)(=O)N2CCN(Cc3ccccc3)CC2)s1	-0.6%	x	-0.5%	-21	x	2.6	18
CCOc1cc(CNCc2ccccc2)ccc1OCc1ccc(Cl)cc1	x	-4.7	-2.1%	1	-27%	-0.3	-1
Cc1nnc(SCCC(=O)Nc2ccc(Cl)cc2)o1	0.1%	0.1	-0.5%	9	20%	0.2	-3
COc1ccc(C(CC(=O)N2CCN(c3ccccc3)CC2)c2c(OC)cc(OC)c3ccc(=O)oc23)cc1 (configuration not stated)	u	11&12	1.9%	11	-3%&-7%	2.4&1.4	-10&50
CC1CCN(C(=O)C(NS(=O)(=O)c2cccc3nsnc23)c2ccccc2)CC1 (configuration not stated)	-4.5%	6.3	-2.5%	7	4%	2.3	-4

Looked up above:
Value for C=C(C)COc1ccc2c(CC)cc(=O)oc2c1 under Sfp inh: 56µM*
Value for COC(=O)c1ccc(NC2=CC(=O)CC(C)(C)C2)cc1 under Sfp inh: 11%

Continuation:
Molecule	ClpP mod	Menin MLL FP FL	PINK1 modulator	TRPV1 PAM	Sfp inh	TRPML1 ag	TRPML1 blocker
COc1ccc(C(=O)c2cc3ccc(O)cc3oc2=O)cc1	-3.9%	u	-4.4%[38.3 µM]	1	5%	-0.5	6
Cc1csc(/N=C/N(C)C)c1C#N	x	-0.4	-1.7%	7	1%	1.3	0
CCN(CC)S(=O)(=O)c1ccc2oc(C(=O)N(C)Cc3ccccc3)c(C)c2c1	0.3%	x	1.9%	x	x	1.6	20
CC(=O)Nc1nonc1-c1nnc(SCC(=O)Nc2ccc(C)c(Cl)c2)n1-c1ccccc1	0.4%	x	0.0%	x	x	-0.9	-14
CCCC(=O)Nc1ccccc1Sc1ncnc2scc(-c3ccccc3)c12	u	4.2	-0.2%	-2	-14%	1.4	-21
CCOC(=O)Cn1cc(Cl)c(=O)c(Cl)c1	-3.3%	-0.2	1.8%	-5	27%	-0.4	-3
Cn1cc(-c2ccc(C(=O)Nc3cccc(Oc4ccccc4)c3)c3occc23)cn1	22µM*	x	8.0%	x	x	1.9	32
Cc1cc(N2CCN(Cc3nc(-c4ccc(Cl)cc4)oc3C)CC2)cc(C)n1	x	-0.4	-2.6%	-5	2%	0.0	2
CSc1ccccc1C(=O)Nc1ccc2c(c1)OCO2	x	-5.3	-0.4%	-11	6%	0.3	3
COC(=O)c1sccc1NC(=O)Nc1ccccc1OC	-2.7%	-1.0	-0.7%	3	-3%	0.1	-10
O=C(COC(=O)c1n[nH]c2ccccc12)NC(=O)NC1CCCC1	u	-0.7	-1.3%	12	-2%	-0.1	17
COc1ccccc1NS(=O)(=O)c1ccc(O)c(C(=O)OCC(=O)N2c3ccccc3CC2C)c1 (configuration not stated)	-25%	-4.2	1.3%	0	-3%	1.2	-15
CC(=O)N1[C@H](C)C=C[C@]1(Cc1ccccc1)C(=O)NCc1cc(F)cc(C(F)(F)F)c1	-3.1%	1.8&-0.5	1.5%	-18	6%&7%	0.1	53
Cc1cc(C)c2c(-n3cccc3)c(C(=O)NCC(C)c3ccccc3)sc2n1 (configuration not stated)	-0.4%	x	2.0%	x	x	1.1	18
O=C(NC1CCCCC1)C1CCN(C(=O)c2ccc(Cl)cc2)CC1	x	-2.7	-0.6%	0	8%	0.0	-3
COc1cc(NC(=O)Cn2ccn(Cc3ccccc3OC)c(=O)c2=O)cc(OC)c1	4.1%	x	11%	x	x	3.0	-9
CCOc1ncccc1C(=O)OCC(=O)c1ccc(F)cc1	x	-4.3	-0.3%	-10	14%	-0.3	2
CCC(c1nnc(SCC(=O)Nc2ccc(C(=O)Nc3ccccc3OC)cc2)o1)N(C)C (configuration not stated)	-3.9%	1.6	0.7%	12	-14%	0.7	9
O=S1(=O)C=C(SCc2cccc(Cl)c2)Nc2ccccc21	32µM*	1.6	-0.6%	6	15%	0.6	-1
CCn1c(SCc2nc(-c3ccccc3)no2)nnc1-c1cccs1	-0.5%	-1.7	-3.1%	-1	5%	1.4	17
COCCn1c(=O)c2c(nc3n2CCN3c2ccc(C)cc2)n(C)c1=O	x	2.5	x	-9	14%	x	x
O=C(NC1CCCCC1)c1cccc(COCC(F)(F)F)c1	-0.6%	2.6	1.0%	21	-11%	-0.9	-21
CN1CCN(S(=O)(=O)c2ccc(NC(=O)Cc3cccs3)cc2)CC1	0.9%	0.8	1.8%[38.3 µM]	13	11%	0.0	16
Cc1cnc(C(=O)NCc2ccc(F)cc2)cn1	x	4.8	1.5%	-12	15%	-0.5	5
CC(C)OCCCNC(=O)c1cc2c(=O)n(C)c3ccccc3c2n1C	4.0%	0.2	2.6%	19	4%	0.6	10
CC(C)Oc1ccc(CSc2nnc3n(C)c(=O)c4c5c(sc4n23)CCCC5)cc1	-4.1%	x	13%[38.3 µM]	x	x	0.0	-10
CCC1(c2ccc(F)cc2)NC(=O)N(CC(=O)N(C)C2CCS(=O)(=O)C2)C1=O (configuration not stated)	0.5%	x	-0.5%	3	x	-0.5	-10
COc1cc(OC)cc(C(=O)N[C@H](C(=O)N2CCc3ccccc32)C(C)C)c1	1.4%	0.3	u	-11	8%	4.3	3
COc1ccc(-n2c(SCC(=O)Nc3cc(C)on3)nc3c(c2=O)SCC3)cc1OC	0.7%	x	0.1%	-10	10%	-0.4	-8
N=c1c2c(n(Cc3cccc(Cl)c3)c3c1CCC3)CCCC2	0.3%	3.5	6.5%[38.3 µM]	-50	15%	-0.4	4
COc1ccc(NC(=O)Nc2ccc3c(c2)C(=O)N([C@H](C)CO)C[C@H](C)[C@@H](CN(C)S(=O)(=O)c2ccc(OC)cc2)O3)cc1	-2.0%	x	4.3%	x	x	0.9	3
O=c1[nH]c(=S)n2c(c1-c1ccccc1)OC(CBr)C2 (configuration not stated)	1.3%	x	0.1%	x	x	-0.9	17
CCOC(=O)c1[nH]c(C)c(/C(O)=C2\C(=O)C(=O)N(CCCN(C)C)C2c2cccnc2)c1C (configuration not stated)	-0.3%	-0.6	0.3%	5	10%	-0.7	18
COc1cc(F)c(C2=CC(=O)C[C@H](c3ccc(F)cc3)C2)cc1F	-0.1%	x	-0.4%	-5	x	-0.6	2
COc1ccccc1CN1C[C@@H]2C[C@@H](C3=Cc4cccc(OC)c4OC3)N3CCC[C@@]23C1=O	x	0.8	0.8%	7	-11%	0.5	29
Nc1nn2c(-c3ccccc3)cc(=O)[nH]c2c1N=Nc1ccc(Br)cc1	1.5%	0.3	3.6%	-1	-8%	3.0	22
